HSD17B inh = qHTS Assay for Inhibitors of HSD17B4, hydroxysteroid (17-beta) dehydrogenase 4. AID 893, 2007. Potency, µM (series often up to 57.1 µM), without a hit: at the top dose activity change, negative = inhibition, actives largely listed as inhibitors. 75,000 compounds, 7.6% hits. recombinant HSD17B10, NADH fluorescence kinetic; many of its hits are not listed in these tables. 3-hydroxyacyl-CoA dehydrogenase type-2 (Homo sapiens), Q99714; active = well fitted inhibition curve with a large enough effect; inconclusive = small, poorly fitted or top-dose-only effect; inactive = no such curve, though single readings can be large or run the other way;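 note: the protocol describes HADH2 (HSD17B10) and not the HSD17B4 of the title; nearly all actives have a fitted effect of over 70% in size; most hits overshoot -100% by far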
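Activity followed as NADH fluorescence increase (ex 360, em 450 nm) every 30 seconds for 4 min, using final 90 uM beta-hydroxybutyryl CoA and 1 mM NAD+. Recombinant His-tagged enzyme, 20 nM, pH 9.0 Tris buffer, 15 min compound preincubation.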
* hit, by the source's call; & = joins results of further samples; [ ] = remark or other dose. % is set by controls: 0 for no effect and ±100 for the full control effect; potency is the fitted concentration of half-maximal effect. Some of the compounds tested; the hit share may differ from the screen's.

Screening O=C(c1ccco1)N1CCN(C(=O)c2cccc3c2C(=O)N(Cc2cccnc2)C3)CC1 returned HSD17B inh 5%.
CCN1C(=O)[C@H]2[C@@H]3[C@H](O)[C@H](O)CC(=O)[C@H]3CC[C@H]2C1=O was read as HSD17B inh 2%&3%[11.4 µM].
Screening O=C(CCCOc1ccccc1)N1CCCc2ccccc21 returned HSD17B inh -4%.
For CN1CC2(C(=O)c3ccccc3)CN(C)CC(C(=O)c3ccccc3)(C1)C2 the results were HSD17B inh -2%.
Screening COC(=O)C(NC(=O)c1ccco1)(Nc1nc(C2CC2)cs1)C(F)(F)F (stereo not drawn) returned HSD17B inh -2%.
C=CCOC(=O)C1=C(C)N(C)C(=O)NC1c1cc2c(cc1Br)OCO2 (stereo not drawn) was read as HSD17B inh 0%.
Screening Cc1nc2nc(SCC(=O)N3CCOCC3)nn2c(C)c1Cc1c(F)cccc1Cl returned HSD17B inh -21%.
Screening CN(C)c1ccc(NC(=O)Nc2ccc3snnc3c2)cc1 returned HSD17B inh 2%.
Screening O=C1c2ccccc2C(Nc2ccc3c(c2)OCCO3)N1Cc1ccc2c(c1)OCO2 (stereo not drawn) returned HSD17B inh 5%.
`COc1ccccc1CNc1ccc(N2CCCCC2)cc1` gave HSD17B inh 2%.
For CCOc1cc(NC(=O)c2ccco2)c(OCC)cc1NC(=O)Cc1ccc(OC)c(OC)c1 the results were HSD17B inh inconclusive.
`CC(C)NC(=O)CSc1nnc(-c2ccc(S(=O)(=O)N3CCCC3)cc2)n1CC1CCCO1` (stereo not drawn) gave HSD17B inh -20%.

Of the compounds above, three contain a furan ring, fused or not.
Screening O=C(c1ccco1)N1CCN(C(=O)c2cccc3c2C(=O)N(Cc2cccnc2)C3)CC1 returned HSD17B inh 5%.
Screening COC(=O)C(NC(=O)c1ccco1)(Nc1nc(C2CC2)cs1)C(F)(F)F (stereo not drawn) returned HSD17B inh -2%.
For CCOc1cc(NC(=O)c2ccco2)c(OCC)cc1NC(=O)Cc1ccc(OC)c(OC)c1 the results were HSD17B inh inconclusive.

The list goes on.
`Cc1nn(-c2ccccc2)c(N2CCCC2)c1/C=N/n1cnc2scc(-c3ccccc3)c2c1=O` gave HSD17B inh 25µM*.
Screening COc1nc(-c2ccccc2)ccc1-c1noc(-c2cccnc2)n1 returned HSD17B inh 25µM*.
For O=C1CCC(=O)O1 the results were HSD17B inh 1%.
`CCOC(=O)c1c(C)nc(-c2ccccc2)nc1N` gave HSD17B inh -9%.
For COc1ccc(N2CCN(c3oc(-c4ccc(OC)c(OC)c4)nc3C#N)CC2)cc1 the results were HSD17B inh 7%.
Screening COc1cc2ccccc2cc1C(=O)OCC(=O)N1CCOCC1 returned HSD17B inh 7.9µM*.
Screening CC(C(=O)NC1=NCCS1)(C(F)(F)F)C(F)(F)F returned HSD17B inh 12%.
Screening COc1ccccc1CNS(=O)(=O)c1cc(C)ccc1OC returned HSD17B inh 5%.
Cc1c(C(=O)Nc2ccccn2)oc2ccccc12 was read as HSD17B inh -1%.
`CC(=O)c1cccc(NC(=O)N2CCC(c3nnc(SCC(N)=O)n3C)CC2)c1` gave HSD17B inh -3%.
N#Cc1nc(-c2ccccc2)oc1N1CCCCC1 was read as HSD17B inh 32µM*.
`COc1ccccc1C(=O)Nc1ccccc1N1CCN(S(C)(=O)=O)CC1` gave HSD17B inh -1%.
N=C1C(c2nc3ccccc3c(=O)[nH]2)=C(O)CN1CCO was read as HSD17B inh 3.2µM*.
CCCCn1c(=O)[nH]c(=O)c2c1nc(COc1ccc(C#N)cc1)n2CCC was read as HSD17B inh 1%.
CC1(C)CC(=O)c2sc(NC(=O)CN3CCCCC3)nc2C1 was read as HSD17B inh -10%.
For CCC(c1nnnn1C(C)(C)C)N1CCN(c2cc(Cl)ccc2C)CC1 (stereo not drawn) the results were HSD17B inh 2%.
For O=C(NCc1cccs1)C1CCC(CNS(=O)(=O)c2ccc(Br)s2)CC1 (stereo not drawn) the results were HSD17B inh 10%.
`O=C(NCc1ccccc1)N1CCN(c2ccccc2F)CC1` gave HSD17B inh 12%.
Screening CCN(CCNC(=O)C1CCN(S(=O)(=O)c2cccc3cccnc23)CC1)c1ccccc1 returned HSD17B inh 3%.
`COC(=O)c1cccc2c1-c1ccccc1/C2=N/O` gave HSD17B inh -6%.
`CCC1C(C#N)=C(SC)NC2=C1C(=O)CC(C)(C)C2` (stereo not drawn) gave HSD17B inh inconclusive.
`CC1CCCCN1CCn1c(=S)[nH]c2ncccc2c1=O` (stereo not drawn) gave HSD17B inh 6%.
Screening COc1ccc(N2C3=[N+](CCCC3)CC2(C)O)cc1 (stereo not drawn) returned HSD17B inh 1%.
CCn1c(SCC(=O)N2CCCCC2)nnc1-c1ccc(S(=O)(=O)N2CCN(C)CC2)cc1 was read as HSD17B inh 25µM*.
O=C(c1cccc(S(=O)(=O)N2CCCCC2)c1)N1CCOCC1 was read as HSD17B inh 6%.
`COC(=O)C1=C(N)Oc2cc(C)n(Cc3cccnc3)c(=O)c2C1c1cccc(OC)c1OC` (stereo not drawn) gave HSD17B inh -5%.
Screening CCOC(=O)C1Cn2c(nc3c(c2=O)C2(CCCC2)Cc2ccccc2-3)S1 (stereo not drawn) returned HSD17B inh inconclusive.
`O=C(O)C(Cl)(c1ccccc1)c1ccccc1` gave HSD17B inh 12%[11.4 µM].
Screening COc1ccc(N(C(=O)COc2ccccc2)C2C=CS(=O)(=O)C2)cc1 (stereo not drawn) returned HSD17B inh -5%.
`CCOc1cc2[nH]c(=O)n(CCCCC(=O)NC3CCCCC3)c(=O)c2cc1OCC` gave HSD17B inh 32µM*.
For CC(=O)NC(C)c1ccc(Cl)c(Cl)c1 (stereo not drawn) the results were HSD17B inh -2%.
Screening CCn1c(=NC(=O)CSC(C)=O)sc2cc(F)ccc21 returned HSD17B inh -6%.
For COc1ccc(Nc2nc(N3CCCCC3)nc(N3CCCCC3)n2)c(OC)c1 the results were HSD17B inh -6%.
`CCCNC(=O)OC[C@@H]1O[C@H](CCO/N=C\[C@@H](C)[C@H](OCc2ccccc2)C(C)C)C=C[C@@H]1Oc1ccc(OC)cc1` gave HSD17B inh -1%[11.4 µM].
For CC(=O)Nc1ccc(NC2(C)C(=O)c3ccccc3C2=O)cc1 the results were HSD17B inh 1%.
`CCC(C)Sc1nc2c(cnn2-c2ccc(C)c(C)c2)c(=O)[nH]1` (stereo not drawn) gave HSD17B inh 8%.

Some of these compounds in order of number of heavy atoms, low to high:
For COc1ccc(Nc2nc(N3CCCCC3)nc(N3CCCCC3)n2)c(OC)c1 the results were HSD17B inh -6%.
`COC(=O)C1=C(N)Oc2cc(C)n(Cc3cccnc3)c(=O)c2C1c1cccc(OC)c1OC` (stereo not drawn) gave HSD17B inh -5%.
`CCCNC(=O)OC[C@@H]1O[C@H](CCO/N=C\[C@@H](C)[C@H](OCc2ccccc2)C(C)C)C=C[C@@H]1Oc1ccc(OC)cc1` gave HSD17B inh -1%[11.4 µM].

Next section:
`COc1cccc2c1CCC1=CC(=O)CC[C@@]12C` gave HSD17B inh 16%.
`COc1cccc2[nH]c3c(=O)n(CCN(C)C)cnc3c12` gave HSD17B inh 3%.
O=C(Cn1c(CN2CCCCC2)nc2ccccc2c1=O)NC1CCCCC1 was read as HSD17B inh 13%.
c1ccc(CNC2=NCCCCC2)cc1 was read as HSD17B inh 7%.
`CCOC(=O)N1CCC(NC(=O)CSCc2cnn(-c3ccccc3)c2-n2cccc2)CC1` gave HSD17B inh 7%.
Cc1cc(C)nc(Nc2n[nH]c(-c3ccccc3Br)n2)n1 was read as HSD17B inh 3%.
COc1ccc(N2CCN(C(=O)Cc3ccc(-n4c(=O)[nH]c5ccccc5c4=O)cc3)CC2)cc1 was read as HSD17B inh inconclusive.
`O=C(Nc1cccnc1)c1scc2c1OCCO2` gave HSD17B inh -12%.
`Cc1cc(NC(=O)CSC2=NCCS2)no1` gave HSD17B inh 2%.
`COc1cccc(C(=O)NC2CCN(C(=O)N3CCCCC3)CC2)c1` gave HSD17B inh -5%.
COc1ccc(NC(=O)c2cnc3sccn3c2=O)cc1 was read as HSD17B inh 5%.
COc1ccc(CNC(=O)Cc2ccc(OC)c(S(=O)(=O)N3CCOCC3)c2)cc1 was read as HSD17B inh -3%.

The last 7 records of the section before come first, to join the parts.
Cc1cc(C)nc(Nc2n[nH]c(-c3ccccc3Br)n2)n1 was read as HSD17B inh 3%.
COc1ccc(N2CCN(C(=O)Cc3ccc(-n4c(=O)[nH]c5ccccc5c4=O)cc3)CC2)cc1 was read as HSD17B inh inconclusive.
`O=C(Nc1cccnc1)c1scc2c1OCCO2` gave HSD17B inh -12%.
`Cc1cc(NC(=O)CSC2=NCCS2)no1` gave HSD17B inh 2%.
`COc1cccc(C(=O)NC2CCN(C(=O)N3CCCCC3)CC2)c1` gave HSD17B inh -5%.
COc1ccc(NC(=O)c2cnc3sccn3c2=O)cc1 was read as HSD17B inh 5%.
COc1ccc(CNC(=O)Cc2ccc(OC)c(S(=O)(=O)N3CCOCC3)c2)cc1 was read as HSD17B inh -3%.
For Clc1ccc(Cn2ncc3c(NCc4ccco4)ncnc32)c(Cl)c1 the results were HSD17B inh -1%.
`CC(C)CCN1C(=O)c2ccc(C(=O)NCc3ccco3)cc2C1=O` gave HSD17B inh -9%.
`O=C(O)c1n[nH]c2c1CCCC2` gave HSD17B inh -3%.
CC(=O)OCC1=C(C(=O)O)N2C(=O)[C@@H](NC(=O)CSc3ccncc3)[C@@H]2SC1 was read as HSD17B inh inconclusive.
Screening Cc1cc(N2CCCC2=O)cc(C)c1S(N)(=O)=O returned HSD17B inh 10%.
For Cc1noc(C)c1S(=O)(=O)N1CCCC(C(=O)N2CCC(C)CC2)C1 (stereo not drawn) the results were HSD17B inh -8%.
`CCn1c(SCc2nc3ccccc3[nH]2)nnc1-c1ccccc1OC` gave HSD17B inh 6%.
`N#Cc1c(NC(=O)COC(=O)C2CC3C=CC2C3)oc(-c2ccccc2)c1-c1ccccc1` (stereo not drawn) gave HSD17B inh inconclusive.
N#Cc1ccc2ccn(CC(=O)NC3CCCCC3)c2c1 was read as HSD17B inh 32µM*.
For Cc1ccnc(N2CCC(C(=O)Nc3ccc4c(c3)OCO4)CC2)n1 the results were HSD17B inh -15%.
Screening c1ccc(CCn2nnnc2C(c2cccs2)N2CCN(Cc3ccc4c(c3)OCO4)CC2)cc1 (stereo not drawn) returned HSD17B inh 8%.
Screening CC(C)(O)C1CC[C@@]2(C)C3CCC4[C@@]5(C)CCCC(C)(C)C5C(O)C[C@]4(C)[C@]3(C)CC[C@@H]12 (stereo partly drawn) returned HSD17B inh 3%.
`N#CC(C(=O)O)=C1CCCC1` gave HSD17B inh 6%.
`COc1ccc(C(=O)n2cnc(N)n2)cc1` gave HSD17B inh 2%.
For O=C(c1n[nH]c(=O)c2ccccc12)N1CCN(c2ccc(F)cc2)CC1 the results were HSD17B inh -6%.
`CCOC(=O)C1CCN(C(=O)COC(=O)CCOc2ccc(C)cc2)CC1` gave HSD17B inh 4%.
O=C(CSc1nnc(-c2ccccc2)n1-c1ccccc1)NCc1ccco1 was read as HSD17B inh 4%.
Screening OCCn1c(-c2ccc3c(c2)OCO3)csc1=Nc1ccccc1 returned HSD17B inh -14%.
Screening Brc1ccc2nc(CSc3ncn[nH]3)cn2c1 returned HSD17B inh -4%.
`Nc1cc(C(=O)O)ccc1N1CCCCCC1` gave HSD17B inh inconclusive.
`FC(F)(F)C(F)(F)C(F)(F)c1nnc2ccc(N3CCOCC3)nn12` gave HSD17B inh 5%.
For COc1ccc(-c2cc3nc(C)c(CCC(=O)N4CCCCC4)c(C)n3n2)c(OC)c1 the results were HSD17B inh -17%.
`CC(C)COC(=O)N1CCCC1C(=O)Nc1nccs1` (stereo not drawn) gave HSD17B inh 0%.
For Cc1cccc(-c2cc3nc(C)cc(NCCCN(C)C)n3n2)c1 the results were HSD17B inh 32µM*.

Pulled by compound from the list above:
Screening Brc1ccc2nc(CSc3ncn[nH]3)cn2c1 returned HSD17B inh -4%.
O=C(CSc1nnc(-c2ccccc2)n1-c1ccccc1)NCc1ccco1 was read as HSD17B inh 4%.

Next section.
`CC(C)NC(=O)N1CC[C@@]2(CCCN(C(=O)c3cnccn3)C2)C1` gave HSD17B inh 1%.
For Clc1cc(Cl)c2nc(N3CCOCC3)sc2c1 the results were HSD17B inh 4%.
Screening COC(=O)c1cc(COC(=O)c2ccc(OC)c(S(=O)(=O)N3CCCC3)c2)oc1C returned HSD17B inh 0%.
`CC(=O)C(C)=O` gave HSD17B inh 3%.
CCCOCC(O)COc1ccccc1C(=O)N1CCOCC1 (stereo not drawn) was read as HSD17B inh 13%.
COc1ccc(-c2ccc(SCC(=O)N3CCOCC3)nn2)cc1OC was read as HSD17B inh 11%.
Cc1nc(N2CCN(S(=O)(=O)c3ccc(F)cc3)CC2)c2c(C)c(C)sc2n1 was read as HSD17B inh -1%.
Screening C/C=C/c1ccc(OCCCNCC(C)O)c(OC)c1 (stereo not drawn) returned HSD17B inh 4%.
Cc1ccccc1Cn1nnc(C(=O)Nc2cccc(C)c2C)c1N was read as HSD17B inh -5%.
`COc1ccc(S(=O)(=O)Nc2ccc(S(=O)(=O)Nc3nc(C)cc(C)n3)cc2)cc1OC` gave HSD17B inh 0%.
O=C(CSc1nc2c(c(=O)n1-c1ccc(Br)cc1)SCC2)NCc1ccco1 was read as HSD17B inh 3%.
Screening COc1cc2c(cc1OC)-c1cc(NC3CCCC3)nc(=O)n1CC2 returned HSD17B inh 25µM*.
For Cc1cccc(CNc2ncncc2-c2ccc3c(c2)OCO3)c1 the results were HSD17B inh -27%.
CC(=O)NCC(=O)N(Cc1ccco1)C1(C(=O)NC2CCCCC2)CCCCC1 was read as HSD17B inh 0%.
For COCc1cc(C)nc(SCC(=O)Nc2ccc3c(c2)OCO3)c1C#N the results were HSD17B inh 3%.
